Bioassay records from PubChem.
RanGTP-Impb inh – inhibitors of RanGTP-importin-beta interaction, primary screen, biochemical, FRET, CFP-Ran, YFP-importin-beta, homogeneous. 300,000 compounds, 1.1% hits. cell-free CFP-Ran/YFP-importin-beta FRET ratio. AID 2216, 2009. inhibition, % (test concentration not listed);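 active = most replicates above 15%; inconclusive = exactly half above 15%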;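 note: 0% = DMSO wells and 100% = Ran loaded with GDP instead of GTP; wells of about 40 µL received 100 nL stock; the first replicate is given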
T cruzi repl – inhibitors of intracellular T. cruzi growth, primary screen, luminescence, NIH3T3 host cells; T. cruzi beta-gal in NIH3T3, 90 h; inhibition, % (concentration not given with the values); 300,000 compounds, 1.4% hits; AID 1885, 2009;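 active = mean inhibition across valid replicates above about 55%, limit read from the data; inconclusive = mean below that limit but half or more replicates reach it; inactive = mean below it, under half of replicates reach it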;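 note: signal also drops with host cell toxicity which is not excluded here; 0% = plate median of DMSO wells and 100% = zero luminescence signal; higher percent means less beta-gal luminescence so fewer parasites; stock transfer was 50 nL into about 50 µL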
Beta cell apopt – inhibitors of cytokine-induced beta cell apoptosis, primary screen, luminescence; INS-1E cytokine-induced death, ATP luminescence, 48 h; percent of positive-control rescue, neutral wells zero; AID 435005, 2010; protection from apoptosis, % (no concentration beside the values); 300,000 compounds, 0.8% hits;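 active = all replicates at 75% or more, or half of them and the mean; inconclusive = half reach 75% but not the mean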;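 note: 0% = cytokine-treated negative control wells and 100% = positive control rescue; higher means more ATP so stronger rescue from cytokine killing; wells of about 40 µL received 100 nL stock; the first replicate is given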
Vif A3G – inhibitors of Vif binding to APOBEC3G peptide, primary screen, biochemical, TR-FRET, GST-Vif 1-94, biotin-A3G peptide, dose response retest (AID 1117319) | 260,000 compounds, 0.57% hits | TR-FRET GST-Vif / biotin-A3G peptide binding; higher % means a stronger effect; test concentration not given here; strong numbers were not always called active | Virion infectivity factor (Human immunodeficiency virus type 1 group M subtype B (isolate … | one-dose inhibition, %; IC50 in µM for titrated hits;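 active = above the screen mean plus three standard deviations and confirmed in dose response; inconclusive = results disagree or hit not tested in dose response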;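 note: Vif residues 1-94 fused to GST binding biotinylated APOBEC3G peptide 110-148; 0% = full assay without inhibitor and 100% = GST in place of GST-Vif; retest series ran down from 100 µM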
Calb FLC – C. albicans growth inhibition with fluconazole, primary screen, CaCi-2 strain, Alamar Blue fluorescence; C. albicans CaCi-2 (fluconazole-resistant clinical isolate) + fluconazole, 48 h; growth inhibition, % (concentration not given with the values); 300,000 compounds, 0.57% hits;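 active = most replicates above 75%; inconclusive = exactly half above 75%; inactive = most below 75%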;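 note: all wells also contain fluconazole at 8 µg/ml as a sub-toxic cotreatment; 0% = median of DMSO wells and 100% = median of geldanamycin control wells; wells of about 8 µL received 7.5 nL stock; the first replicate is given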
MLL AF4-AF9 inh – inhibitors of AF4 peptide binding to AF9, primary screen, biochemical, AlphaScreen, biotin-AF4 peptide, FLAG-AF9, single point | Protein AF-9 (Homo sapiens), P42568 | inhibition, % at 10 µM | 350,000 compounds, 0.47% hits;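 active = every replicate reaching a set inhibition limit, whatever the replicate mean, cut at about 25% in these data; inconclusive = mean inhibition reaches that limit but some replicates miss it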;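 note: 0% = plate neutral control median and 100% = total signal loss; the record names both 10 and 1 µM as test concentration; the first replicate is given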
A1 inh – caspase 3/7 activation in MEF A1-2A-BIM cells, primary screen, A1 inhibitor project, cell-based, luminescence, HTS; Caspase-Glo 3/7 luminescence, 3 h; percent of clofoctol response, vehicle zero; 330,000 compounds, 0.066% hits; AID 2462, 2010; caspase activation, % (no concentration beside the values);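 active = over half of replicate activation scores above 10%, or exactly half above 10 with the replicate mean above 10; inconclusive = replicate mean below 10 yet half the replicates above 10; inactive = over half of replicates below 10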;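 note: wells of about 30 µL received 50 nL stock; many hits fall short of the cut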
LANA-H2B inh – blockers of LANA interaction with H2A/H2B – biochemical, FP readout, HTS, primary screen | inhibition, % (concentration not given with the values) | 320,000 compounds, 0.6% hits | cell-free LANA-H2A/H2B peptide, fluorescence polarization; in the data active = inhibition mostly above about 10%, no sharp cut-off; inactive = mostly below about 6.7%;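 note: stock transfer was 7.5 nL into about 10 µL; 0% = median of vehicle wells and 100% = median of positive control wells; one replicate is shown; the record names a cut of 25% in any replicate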
Target sequence (Q9QR71 whole entry, looked up): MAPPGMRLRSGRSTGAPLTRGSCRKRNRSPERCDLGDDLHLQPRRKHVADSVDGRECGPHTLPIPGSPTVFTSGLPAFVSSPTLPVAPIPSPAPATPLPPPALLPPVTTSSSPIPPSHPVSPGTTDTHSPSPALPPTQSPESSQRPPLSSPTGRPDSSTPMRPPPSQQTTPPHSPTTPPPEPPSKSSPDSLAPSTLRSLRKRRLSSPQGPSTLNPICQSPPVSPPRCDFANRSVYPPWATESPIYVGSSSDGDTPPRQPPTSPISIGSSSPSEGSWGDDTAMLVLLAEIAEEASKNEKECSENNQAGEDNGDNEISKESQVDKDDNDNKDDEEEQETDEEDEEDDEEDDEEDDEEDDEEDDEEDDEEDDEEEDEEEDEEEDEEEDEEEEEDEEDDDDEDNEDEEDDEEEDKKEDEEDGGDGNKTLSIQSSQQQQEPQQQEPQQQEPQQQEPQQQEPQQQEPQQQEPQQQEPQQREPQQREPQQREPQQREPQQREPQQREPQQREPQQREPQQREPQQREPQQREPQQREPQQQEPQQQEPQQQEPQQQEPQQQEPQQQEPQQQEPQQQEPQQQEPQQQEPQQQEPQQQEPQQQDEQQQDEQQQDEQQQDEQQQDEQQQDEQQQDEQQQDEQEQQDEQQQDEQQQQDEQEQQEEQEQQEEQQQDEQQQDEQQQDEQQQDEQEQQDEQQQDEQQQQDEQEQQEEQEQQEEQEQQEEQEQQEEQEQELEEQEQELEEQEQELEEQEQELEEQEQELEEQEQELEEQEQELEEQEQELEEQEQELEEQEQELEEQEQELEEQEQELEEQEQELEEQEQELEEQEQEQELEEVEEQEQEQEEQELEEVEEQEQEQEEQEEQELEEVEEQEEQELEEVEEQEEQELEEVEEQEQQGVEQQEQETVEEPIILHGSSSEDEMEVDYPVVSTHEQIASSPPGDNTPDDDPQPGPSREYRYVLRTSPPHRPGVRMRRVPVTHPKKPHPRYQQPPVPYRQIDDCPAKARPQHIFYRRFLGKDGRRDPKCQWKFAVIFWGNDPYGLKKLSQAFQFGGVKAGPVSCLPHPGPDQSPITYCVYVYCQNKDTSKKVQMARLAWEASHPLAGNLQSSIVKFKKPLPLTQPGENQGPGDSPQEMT
Numbers without * were called inactive; ? = inconclusive; · = not tested or not shown; & = joins results of further samples. Not a hit list; about 4.3% have a hit in one of these screens.

SMILES	RanGTP-Impb inh	T cruzi repl	Beta cell apopt	Vif A3G	Calb FLC	MLL AF4-AF9 inh	A1 inh	LANA-H2B inh
Cc1c(C)c2ccc(OCC(=O)N3CCC[C@@H]3C(=O)O)c(C)c2oc1=O	1.4	0	2	·	-7	-3.0	2.4	4.5
Cc1cc(C(=O)NCCCOC(C)C)c2ccccc2n1	?	-3	4	6%	-6	·	1.1	0.1
COc1ccc(CCNC(=O)[C@H](C)NC(=O)[C@@H]2CSC3c4ccccc4C(=O)N32)cc1 (stereo partly drawn)	4.1	-13	-7	5%	5	1.2	-0.3	5.1
COc1ccc(C(=O)C2CCCN(Cc3ccc4nonc4c3)C2)c(OC)c1 (stereo not drawn)	1.1	70*	-2	-1%	16	20	0.5	-1.2
O=C(OC(C(=O)NCc1cccs1)c1ccccc1F)c1ccco1 (stereo not drawn)	?	4	1	1%	0	·	1.2	-5.6
CCOc1ccc(C(=O)OC2CCN(C)CC2)cc1	1.4	37	·	3%	-10	·	0.2	12
CCCCN=Cc1c(C)[nH]n(-c2ccccc2)c1=S	5.8	3	-3	-8%	-11	4.0	0.5	5.0
O=C(c1ccc2nc[nH]c2c1)N1CCc2ccccc2C1	0.2	42	-5	-10%	-4	-6.8	0.7	-14
Cc1nc(N2CCOCC2)sc1C(=O)NN	3.6	10	-8	-11%	0	-0.7	-1.0	-0.6
COc1ccc(/C(C)=N/NC(=O)CNC(=O)c2ccco2)cc1	1.0	-1	5	·	1	1.0	0.3	3.6
COc1cccc(CN(C)C(=O)C2CC(=O)N(c3ccc4c(c3)OCCO4)C2)c1 (stereo not drawn)	0.1	-1	·	-9%	3	-0.5	1.2	1.6
CCN1C(=O)c2ccccc2S(=O)c2ccc(C(=O)N3CCN(C(=O)c4ccco4)CC3)cc21 (stereo not drawn)	0.9	-6	8	2%	2	5.1	0.5	1.3
Cc1ccc(N2CC(C)Cn3c2nc2c3c(=O)n(CC(=O)OCc3ccccc3)c(=O)n2C)cc1C (stereo not drawn)	-1.9	47	16	0%&-8%	39	·	-1.4	1.7
COC(=O)c1ccc(NC(=O)Cc2ccccc2)cc1	3.4	-14	-4	26%	-8	·	-4.3	2.9
COc1ccc(NC(=O)CCN2CCCCCC2)cc1	0.5	6	-14	5%	-4	·	2.0	-3.6
COc1ccc(Cn2nnnc2C(c2ccccc2Cl)N2CCC(C(N)=O)CC2)cc1 (stereo not drawn)	-3.8	-5	·	0%	0	·	0.0	1.1
COc1cc2c(cc1OC)/C(=C/C(=O)c1ccc(C)cc1)NCC2	0.1	21	1	-4%	-1	14	0.2	2.1
COc1cccc(N=Cc2c[nH][nH]c2=O)c1	1.9	-21	-6	1%	-9	·	-1.1	5.0
COc1ccccc1CNC(=O)C1CCN(C(=O)[C@@H]2Cc3ccccc3CN2)CC1	-1.3	8	0	·	-3	1.7	-0.9	-1.1
CCCOc1ccc(-c2nnn(CC(=O)Nc3cccc(C(=O)OC)c3)n2)cc1	0.7	4	5	2%&-4%	-26	·	0.0	2.5
CC(C)Cc1ccc(CN2CCC(n3nccc3NC(=O)C3CCCC3)CC2)cc1	22*	59*	-2	·	2	3.9	2.0	-0.6
Cc1ccc(NC(=O)CN(C)CC(=O)Nc2sc3c(c2C(N)=O)CCC3)cc1	5.8	-1	0	·	5	-17	0.7	-4.7
CCc1cc2c(=O)n(-c3ccc(Br)cc3)cnc2s1	2.6	-9	-1	3%	-8	·	-1.2	-0.8
CCOc1ccc(CNC(=O)CCC(=O)N2CCSc3ccccc32)cc1	-3.1	8	0	·	-3	-4.8	-0.3	-6.8
O=C(O)c1cccc(Nc2nc3ccccc3nc2NS(=O)(=O)c2cccs2)c1	4.7	-7	-7	·	9	-2.4	0.2	4.4
CC(=O)N[C@H]1[C@H](Oc2ccc3c(c2)CCC2C3CC[C@]3(C)C(=O)CCC23)O[C@H](CO)[C@@H](O)[C@@H]1O (stereo partly drawn)	-0.8	1	-5	-2%	-1	-3.2	1.3	0.0
C[C@H]1COC(=O)[C@H](Cc2ccc(F)cc2)CC/C=C/C[C@@H](CC(=O)N[C@@H](CO)Cc2ccccc2)C(=O)N1	·	·	3	·	·	-6.6	0.5	-2.6
COc1ccc(CCNC(=O)CNC(=O)Cn2ccc3ccccc3c2=O)cc1OC	-0.9	-7	-7	12%	-4	-15	1.0	0.1
Cc1cccc(/C=C(\C(=O)C(=O)O)c2ccc3ccccc3n2)c1	29*	-8	·	-10%	-7	-2.0	-0.7	-4.6
COc1cc(C(=O)NCCc2ccccc2)ccc1OCC(=O)N1CCOCC1	·	·	-3	2%	·	-9.0	2.5	-4.1
c1ccc(N2CCOCCOCCOCCOCC2)cc1	1.5	-14	1	-5%	2	·	1.1	3.3
CCCn1c(=O)c2ccccc2n2c(SCc3nc4ccccc4s3)nnc12	-1.0	4	·	10%	3	·	-1.2	1.9
CCCC(=O)Nc1ccc(N2CCN(C(=O)c3cc4ccccc4o3)CC2)cc1	-2.7	8	4	·	-1	-4.4	0.3	-0.7
O=C(NC(=O)c1ccccc1Cl)Nc1ccc(-c2cnco2)cc1	7.3	-26	-6	-4%	-3	·	0.1	-5.3
CC(C)C(=O)NC(=O)COC(=O)/C=C/c1cccs1	1.1	-15	2	-7%	13	1.8	-0.5	0.6
COc1cccc(C(=O)NCC(=O)NCc2cc(=O)n(C)c(=O)n2C)c1	1.6	-12	-4	·	2	-1.6	0.9	2.8
O=C(CSc1ccc(Cl)cc1)Nc1cccc(-c2nnc(-c3ccco3)o2)c1	-0.3	23	1	·	-2	-8.3	0.2	2.0
CNC(=O)c1ccsc1NC(=O)CN1C(=O)CCC1=O	2.6	6	-1	·	9	-3.6	1.0	-2.2
CCOC(=O)Cc1nn(C)c(=O)c2ccccc12	-4.8	-36	-4	-3%	5	4.2	0.3	0.5
CCc1c(O)c(/C(C)=N\O)c(=O)n(-c2ccccc2)c1-c1ccccc1	-1.6	-10	-3	·	?	·	0.7	1.4
O=C(Nc1ccc2c(c1)OCCO2)C1CCN(C(=O)c2ccc([N+](=O)[O-])cc2)CC1	-3.3	-9	-3	·	-7	-2.0	0.1	-4.0
Oc1ccc(-n2cccc2/C=N/n2cnnc2)cc1	-0.6	1	-3	5%	1	0.0	0.4	7.7
CCC(=O)c1ccc(OCC(=O)OCC(=O)N(CCC#N)c2ccc3c(c2)OCCO3)cc1	·	·	3	0%	·	-1.7	1.2	-0.1
O=C(c1ccc2c(c1)OCO2)N1CCC2(CC1)Oc1ccc(Cl)cc1C(=O)C21CC(c2ccccc2)=NO1 (stereo not drawn)	-2.4	25	-1	13%	14	-1.0	0.1	-3.1
CSc1ccc(S(=O)(=O)Nc2ccc(NC(C)=O)cc2)cc1	6.6	5	7	7%	2	·	0.2	3.5
Cc1ccc(NC(=O)CCC(=O)N/N=C/c2cccs2)cc1C	-1.1	-3	-8	-7%	-6	·	0.5	3.0
COC(=O)c1sc(S(=O)(=O)NCCC(=O)O)c(C(=O)OC)c1C	-3.2	4	1	28%	21	-1.4	-0.5	-0.4
C/C(=N\NC(=O)c1cccc(S(=O)(=O)N2CCCC2)c1)c1ccco1	-3.2	-2	-10	-4%	-2	1.1	0.0	-2.9
Cc1nc(N)sc1Cc1ccc2c(c1)OCO2	2.3	-1	-7	?	-2	·	-0.6	-3.1
COCCC(=O)N1CCC(C(=O)Nc2ccc(Oc3ccccc3)nc2)CC1	5.0	-7	-5	·	3	-7.4	0.0	0.2
CC(=O)c1cc(CN2CCC(C(=O)Nc3ccc(-n4nc(C)cc4C)cc3)CC2)cs1	-1.3	8	5	·	8	1.3	-0.4	3.6
CC(C)NC(=S)NC(=O)c1ccc(Cl)cc1Cl	-4.2	-7	-1	·	-9	·	0.0	-0.5
S=c1[nH]nc(-c2ccncc2)n1/N=C/c1cn(-c2ccccc2)nc1-c1ccc(Cl)cc1	-5.5	8	5	·	-1	8.5	0.3	7.0
C=CCCC(=O)Nc1nc(C)c(-c2csc(Nc3ccc(Cl)cc3Cl)n2)s1	-2.8	50	-4	8%	-2	2.5	-0.7	3.7
O=[N+]([O-])c1c(Nc2ccccc2)ccc2nonc12	-4.6	-1	-2	1%	3	·	1.0	3.9
O=C(/C=C/c1ccccc1)N/C(=C/c1ccccc1)C(=O)N1CCCCC1	-1.2	10	0	17%	-5	·	-0.3	-1.3
Cc1ccsc1/C=C1\SC(N)=NC1=O	-4.0	1	-1	-4%	3	·	-1.8	5.9
CN1C(=O)CSc2ccc(NC(=O)N3CCN(c4ccccc4)CC3)cc21	-1.0	-5	1	-7%	-11	0.7	-0.4	1.2
CCOC(=O)C1CCN(S(=O)(=O)c2ccc3c(c2)NC(=O)C(C)C(=O)N3)CC1 (stereo not drawn)	-4.8	-9	-10	·	5	-3.6	·	-8.2
CCn1cc(C(=O)OCC(=O)Nc2ccc(C(C)C)cc2)c(=O)c2ccc(C)nc21	-0.5	-6	-6	-3%	?	-1.4	-1.7	-0.3

Remaining list, next part:
SMILES	RanGTP-Impb inh	T cruzi repl	Beta cell apopt	Vif A3G	Calb FLC	MLL AF4-AF9 inh	A1 inh	LANA-H2B inh
CCC(C)CCN1C(N(C)C)=NC[C@@H]1C (stereo partly drawn)	·	·	-4	·	·	-5.5	-0.9	4.0
Oc1ccc(/C=N/NC2=NCCCCC2)cc1	-2.3	1	·	27%	0	·	0.1	0.7
O=C1COc2ccc(-c3n[nH]c(=O)c4ccccc34)cc2N1	-0.6	-10	-1	12%	1	-2.1	1.3	-1.2
O=C(CO/N=C/c1c(Cl)cccc1Cl)NNC(=O)c1ccc(Cl)cc1	4.5	-1	-4	-7%	4	-7.2	-0.1	2.8
Cc1cc(NC(=O)C(C)(C)C)no1	3.1	3	-4	3%	-7	·	1.8	-1.4
C=CCn1c(=O)c2ccccc2n2c(SCC(C)=O)nnc12	-1.1	-12	-9	·	13	-44	-0.2	2.5
O=C(c1ccc(Br)o1)N1CCN(c2ccccc2F)CC1	-15	1	6	0%	22	·	0.0	0.4
Cc1ccc(N(Cc2cc(=O)[nH]c3ccccc23)C(=O)CCl)cc1	-3.4	-5	-19	·	46	-3.8	3.1	1.8
CCCCNC(=O)[C@@H]1CC=C[C@@H]2CCN(Cc3ccc(Cl)c(Cl)c3)C(=O)[C@@H]21	1.6	26	-6	·	-1	·	-0.2	3.5
CCCCNC(=O)CN1C(=O)NC2NC(=O)NC21 (stereo not drawn)	?	-15	-8	16%	-2	1.6	-0.5	3.1
COc1cc(NC(=O)CN2C(=O)C(C)N(c3ccc(C)cc3)C2=O)cc(OC)c1 (stereo not drawn)	3.4	8	1	-6%	4	-2.6	0.4	3.5
